HNF4A DNA FP: change in binding of human HNF4A to DNA, primary screen, biochemical, fluorescence polarization, FITC-DNA; Hepatocyte nuclear factor 4-alpha (Homo sapiens), P41235; activity change, % at 10 µM; 1 h; 360,000 tested, 0.3% active; AID 1224865, 2016; in the data active = activity change above about 30%, passing the limit was not always enough;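 note: controls were the assay level and a saturating level of protein; the project sought stronger binding though the title names inhibitors; some compounds called inactive have numbers as strong as hits; positive values seem to mean higher polarization but the record does not say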
Target sequence (P41235 whole entry, looked up): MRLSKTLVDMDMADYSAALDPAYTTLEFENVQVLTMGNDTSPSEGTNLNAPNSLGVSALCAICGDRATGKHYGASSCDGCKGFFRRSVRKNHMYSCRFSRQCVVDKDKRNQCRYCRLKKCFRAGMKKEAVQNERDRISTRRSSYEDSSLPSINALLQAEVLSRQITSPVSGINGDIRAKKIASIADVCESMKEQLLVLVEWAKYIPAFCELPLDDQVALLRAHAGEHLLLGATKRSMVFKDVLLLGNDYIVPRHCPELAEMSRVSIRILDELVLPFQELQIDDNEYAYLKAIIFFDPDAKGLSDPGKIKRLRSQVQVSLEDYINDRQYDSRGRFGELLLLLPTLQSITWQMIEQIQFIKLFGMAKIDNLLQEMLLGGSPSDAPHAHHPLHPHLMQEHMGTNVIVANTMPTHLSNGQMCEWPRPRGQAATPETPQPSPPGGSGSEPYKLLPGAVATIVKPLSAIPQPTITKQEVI
E coli growth: E. coli growth inhibition, primary screen, OD600; Escherichia coli growth, 23 h; hits give low values; OD600 absorbance (no concentration beside the values); 330,000 tested, 0.21% active; AID 1053175, 2014;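 active = OD600 absorbance below the run mean of sample wells minus 3.6 SD, in any replicate, cut at about 0.56 in these data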;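 note: stock transfer was 300 nL into about 60 µL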
Ecoli rRNA inh: reduced GFP signal of wild-type E. coli, primary screen, bacterial rRNA inhibitor project, GFP/RFP fluorescence, OD600, single point | E. coli WT GFP vs humanized-ribosome RFP mutants, 24 h; hits give low values; DMSO median 0, no signal -100 | GFP signal change (wild-type ribosome), % (test concentration not listed) | 350,000 tested, 1.6% active;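 active = significant combined selectivity score with lowered wild-type GFP, culture density cut under 30%, mutant RFP and density less affected; inactive = any of these conditions unmet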; note: one replicate is shown; some compounds called inactive have numbers as strong as hits
Vif A3G: inhibitors of Vif binding to APOBEC3G peptide, primary screen, biochemical, TR-FRET, GST-Vif 1-94, biotin-A3G peptide, dose response retest (AID 1117319) | TR-FRET GST-Vif / biotin-A3G peptide binding; higher % means a stronger effect; test concentration not given here; strong numbers were not always called active | inhibition, %; hits with a dose series show IC50 in µM | Virion infectivity factor (Human immunodeficiency virus type 1 group M subtype B (isolate … | 260,000 tested, 0.57% active;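 active = above the screen mean plus three standard deviations and confirmed in dose response; inconclusive = results disagree or hit not tested in dose response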;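 note: Vif residues 1-94 fused to GST binding biotinylated APOBEC3G peptide 110-148; 0% = full assay without inhibitor and 100% = GST in place of GST-Vif; retest series ran down from 100 µM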
MLL AF4-AF9 inh: inhibitors of AF4 peptide binding to AF9, primary screen, biochemical, AlphaScreen, biotin-AF4 peptide, FLAG-AF9, single point | Protein AF-9 (Homo sapiens), P42568 | inhibition, % at 10 µM | 350,000 tested, 0.47% active | AID 651704, 2012;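 active = every replicate reaching a set inhibition limit, whatever the replicate mean, cut at about 25% in these data; inconclusive = mean inhibition reaches that limit but some replicates miss it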;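 note: 0% = plate neutral control median and 100% = total signal loss; the record names both 10 and 1 µM as test concentration; the first replicate is given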
FGF22 binding: binders of human FGF22 protein, primary screen, FGF22 synaptogenesis inhibitor project, biophysical, thermal shift, single point; Fibroblast growth factor 22 (Homo sapiens), Q9HCT0; recombinant FGF22 thermal shift, SYPRO orange fluorescence; percent of sucrose octasulfate shift, DMSO zero; calls only at 9.99 µM; 340,000 tested, 1.5% active;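 active = melting point raised past a set limit in the mean and every replicate; inconclusive = no clear call; three in four hits are not shown here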
Target sequence (Q9HCT0 whole entry, looked up): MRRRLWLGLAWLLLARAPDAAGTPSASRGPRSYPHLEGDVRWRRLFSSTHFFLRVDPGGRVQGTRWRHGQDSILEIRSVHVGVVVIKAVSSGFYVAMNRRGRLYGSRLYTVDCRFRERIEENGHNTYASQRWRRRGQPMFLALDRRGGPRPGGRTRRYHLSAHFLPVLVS
ALR inh: inhibitors of human ALR sulfhydryl oxidase, primary screen, biochemical, H2O2 detection, HRP-luminol luminescence, single point; FAD-linked sulfhydryl oxidase ALR (Homo sapiens), P55789; purified ALR, DTT oxidation; inhibition, % (concentration not given with the values); 290,000 tested, 3.8% active; AID 485317, 2010;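 active = mean and each replicate at 75% or more; inconclusive = only one of the two met; inactive = neither met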;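 note: stock transfer was 7.5 nL into about 7.5 µL; 0% = neutral wells and 100% = wells with inactivated enzyme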
Target sequence (P55789 whole entry, looked up): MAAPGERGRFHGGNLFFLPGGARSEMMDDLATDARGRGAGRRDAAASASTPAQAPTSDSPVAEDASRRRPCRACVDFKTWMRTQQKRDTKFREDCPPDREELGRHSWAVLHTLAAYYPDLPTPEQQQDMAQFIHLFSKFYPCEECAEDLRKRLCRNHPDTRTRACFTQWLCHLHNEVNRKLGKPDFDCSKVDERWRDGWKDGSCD
Ecoli rRNA inh OD600: further read-out of Ecoli rRNA inh, marked with its call; OD600 change, %; measured here: OD600 growth;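 optical density of the mix in the first replicate; 0 = DMSO median and -100 = no signal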
Ecoli rRNA inh RFP: second read-out of Ecoli rRNA inh, no call of its own (marks repeat the call); RFP signal change, %; measured here: RFP humanized mutant strains;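 first replicate; 0 = DMSO median and -100 = no signal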
* marks the source's active call; other numbers are inactive results.

Results for O=C1CCCC2(O)C1C(c1cccc(Br)c1)NC(=O)N2Cc1ccccc1 (centres undefined) ?
HNF4A DNA FP: 2.9; E coli growth: 0.68; Ecoli rRNA inh: 10; Vif A3G: 15%; MLL AF4-AF9 inh: -0.1; FGF22 binding: inactive; ALR inh: 3; Ecoli rRNA inh OD600: 11; Ecoli rRNA inh RFP: -0.8

Results for COc1ccc(-c2cc(=O)oc3c(C)c(O)ccc23)cc1 ?
HNF4A DNA FP: 14; E coli growth: 0.72; Ecoli rRNA inh: 2; Vif A3G: -18%; MLL AF4-AF9 inh: 0.1; FGF22 binding: inactive; ALR inh: -8; Ecoli rRNA inh OD600: 4; Ecoli rRNA inh RFP: -0.4

What do the screens show for `CN(C)C(=O)c1cccc(-c2ccc3c(c2)[C@@H]2[C@@H](CCN2C(=O)C2CCOCC2)[C@@H](CO)N3)c1`?
Ecoli rRNA inh: 4; MLL AF4-AF9 inh: -3.1; FGF22 binding: inactive; Ecoli rRNA inh OD600: 16; Ecoli rRNA inh RFP: -2.8

Results for CC(C)CC#Cc1ccc2c(c1)O[C@H](CN(C)C(=O)c1cnccn1)[C@H](C)CN([C@H](C)CO)S2(=O)=O ?
Ecoli rRNA inh: 2; MLL AF4-AF9 inh: 1.0; FGF22 binding: inactive; Ecoli rRNA inh OD600: -6; Ecoli rRNA inh RFP: 0.8

What do the screens show for `CCOC(=O)Cc1csc(NC(=O)Cc2cccs2)n1`?
HNF4A DNA FP: 2.1; E coli growth: 0.7; Ecoli rRNA inh: 0; Vif A3G: 29%; ALR inh: -7; Ecoli rRNA inh OD600: 2; Ecoli rRNA inh RFP: -1.3

How did COCCCNC(=O)CCCn1c(=O)[nH]c2ccccc2c1=O do in these assays?
HNF4A DNA FP: -4.1; E coli growth: 0.65; Vif A3G: 5%; ALR inh: -13

What do the screens show for `O=[N+]([O-])c1cccnc1Sc1ccc(Br)cc1`?
HNF4A DNA FP: 3.0; E coli growth: 0.71; Ecoli rRNA inh: -13; MLL AF4-AF9 inh: 9.1; FGF22 binding: inactive; ALR inh: -3; Ecoli rRNA inh OD600: -11; Ecoli rRNA inh RFP: 1.0

Results for Cc1noc(C)c1S(=O)(=O)Nc1ccc2c(c1)C(=O)N([C@H](C)CO)C[C@H](C)[C@H](CN(C)Cc1ccc(C(=O)O)cc1)OCCCC[C@@H](C)O2 ?
Ecoli rRNA inh: 1; MLL AF4-AF9 inh: -11; FGF22 binding: active; Ecoli rRNA inh OD600: 7; Ecoli rRNA inh RFP: -1.5

How did Cc1cccc(C)c1NC(=O)C1c2ccccc2OCC(=O)N1CCCN1CCOCC1 (centres undefined) do in these assays?
HNF4A DNA FP: -4.6; Ecoli rRNA inh: 6; MLL AF4-AF9 inh: 2.1; FGF22 binding: inactive; Ecoli rRNA inh OD600: 9; Ecoli rRNA inh RFP: 1.4

Results for COC(=O)c1nnn(-c2nonc2N)c1CSc1nc2ccccc2o1 ?
HNF4A DNA FP: 0.1; E coli growth: 0.69; Vif A3G: 1%; ALR inh: -29

Results for COc1ccc(CCC(=O)Nc2ccc(S(=O)(=O)NC3=NCCCCC3)cc2)cc1 ?
HNF4A DNA FP: 4.5; Ecoli rRNA inh: 1; Vif A3G: 3%; MLL AF4-AF9 inh: 2.3; Ecoli rRNA inh OD600: 3; Ecoli rRNA inh RFP: -1.7

How did C[C@@H]1CN([C@@H](C)CO)C(=O)c2cc(C#Cc3ccccn3)cnc2O[C@H]1CN(C)CC1CCOCC1 do in these assays?
Ecoli rRNA inh: 7; MLL AF4-AF9 inh: -0.4; FGF22 binding: inactive; Ecoli rRNA inh OD600: 10; Ecoli rRNA inh RFP: -1.6

Results for CO[C@@H]1CN(C)C(=O)c2cc(NS(=O)(=O)c3ccccc3)ccc2OC[C@H](C)N(Cc2nccs2)C[C@@H]1C ?
Ecoli rRNA inh: -2; MLL AF4-AF9 inh: 1.2; FGF22 binding: inactive; Ecoli rRNA inh OD600: -15; Ecoli rRNA inh RFP: 5.1

What do the screens show for `Cc1cccc(C)c1N(CC(=O)NCc1ccc(F)cc1)C(=O)c1csnn1`?
HNF4A DNA FP: -5.5; E coli growth: 0.64; Ecoli rRNA inh: -1; Vif A3G: -1%; MLL AF4-AF9 inh: 0.4; FGF22 binding: inactive; ALR inh: -18; Ecoli rRNA inh OD600: -5; Ecoli rRNA inh RFP: 2.5

Results for O=C(Cn1ccnc1)c1ccc(Cl)cc1 ?
HNF4A DNA FP: 0.9; E coli growth: 0.62; Ecoli rRNA inh: 13; Vif A3G: -6%; MLL AF4-AF9 inh: 2.8; FGF22 binding: inactive; ALR inh: -5; Ecoli rRNA inh OD600: -2; Ecoli rRNA inh RFP: 3.1

Brought forward from above: 3 entries, then new ones.
Results for CO[C@@H]1CN(C)C(=O)c2cc(NS(=O)(=O)c3ccccc3)ccc2OC[C@H](C)N(Cc2nccs2)C[C@@H]1C ?
Ecoli rRNA inh: -2; MLL AF4-AF9 inh: 1.2; FGF22 binding: inactive; Ecoli rRNA inh OD600: -15; Ecoli rRNA inh RFP: 5.1

What do the screens show for `Cc1cccc(C)c1N(CC(=O)NCc1ccc(F)cc1)C(=O)c1csnn1`?
HNF4A DNA FP: -5.5; E coli growth: 0.64; Ecoli rRNA inh: -1; Vif A3G: -1%; MLL AF4-AF9 inh: 0.4; FGF22 binding: inactive; ALR inh: -18; Ecoli rRNA inh OD600: -5; Ecoli rRNA inh RFP: 2.5

Results for O=C(Cn1ccnc1)c1ccc(Cl)cc1 ?
HNF4A DNA FP: 0.9; E coli growth: 0.62; Ecoli rRNA inh: 13; Vif A3G: -6%; MLL AF4-AF9 inh: 2.8; FGF22 binding: inactive; ALR inh: -5; Ecoli rRNA inh OD600: -2; Ecoli rRNA inh RFP: 3.1

How did O=C(Nc1ccc(F)cc1)N[C@H]1CC[C@@H](CCn2cc(-c3ccc(F)cc3)nn2)O[C@H]1CO do in these assays?
Ecoli rRNA inh: -9; MLL AF4-AF9 inh: -15; FGF22 binding: inactive; Ecoli rRNA inh OD600: -29; Ecoli rRNA inh RFP: 1.1

Results for Cc1ccc2c(C)c(C(=O)NCC3CCOCC3)oc2c1C ?
HNF4A DNA FP: -0.4; Ecoli rRNA inh: -8; MLL AF4-AF9 inh: -2.2; FGF22 binding: inactive; Ecoli rRNA inh OD600: -25; Ecoli rRNA inh RFP: 1.3

Results for CCC(=O)Nc1ccc2c(c1)C(=O)N(C)C[C@H](OC)[C@H](C)CN(Cc1cccc(F)c1)[C@H](C)CO2 ?
Ecoli rRNA inh: -2; MLL AF4-AF9 inh: 2.8; FGF22 binding: inactive; Ecoli rRNA inh OD600: 0; Ecoli rRNA inh RFP: 2.6

Results for CC(C)(C)OC(=O)NC1CCN(S(=O)(=O)c2ccc3c(c2)OCCO3)CC1 ?
HNF4A DNA FP: 3.2; E coli growth: 0.71; Ecoli rRNA inh: -2; MLL AF4-AF9 inh: 1.9; FGF22 binding: inactive; Ecoli rRNA inh OD600: -4; Ecoli rRNA inh RFP: -1.1

How did CCC(C)[C@H](NC(=O)NCc1ccc(S(N)(=O)=O)cc1)C(=O)O (some centres undefined) do in these assays?
HNF4A DNA FP: 4.7; E coli growth: 0.72; Ecoli rRNA inh: 9; Vif A3G: -6%; MLL AF4-AF9 inh: -1.9; FGF22 binding: inactive; ALR inh: 0; Ecoli rRNA inh OD600: 0; Ecoli rRNA inh RFP: -4.0

What do the screens show for `COc1ccc(-c2csc(N(CCc3ccc(OC)c(OC)c3)C(=O)COc3ccccc3)n2)cc1`?
HNF4A DNA FP: 2.7; E coli growth: 0.76; Vif A3G: 2%; ALR inh: 1

Results for O=C(CSc1nnc(-c2ccccc2)n1Cc1ccccc1)N1CCCC1 ?
HNF4A DNA FP: 1.8; E coli growth: 0.73; Vif A3G: 8%; ALR inh: -5

What do the screens show for `CNC(=S)N(CCc1ccccc1)Cc1cc2cc(OC)c(OC)cc2[nH]c1=O`?
HNF4A DNA FP: -1.5; E coli growth: 0.73; Vif A3G: -3%; ALR inh: -8

Results for C[C@@H]1CN([C@H](C)CO)C(=O)c2cc(NC(=O)CCCN(C)C)ccc2O[C@@H](C)CCCCO[C@H]1CN(C)Cc1ccncc1 ?
Ecoli rRNA inh: 4; MLL AF4-AF9 inh: -10; FGF22 binding: inactive; Ecoli rRNA inh OD600: 9; Ecoli rRNA inh RFP: -1.1

How did CCCNC(=O)N1C[C@@H](O)COC[C@@H]2O[C@H](CC(=O)N3CCCCC3)CC[C@H]21 do in these assays?
Ecoli rRNA inh: 1; MLL AF4-AF9 inh: -1.7; FGF22 binding: inactive; Ecoli rRNA inh OD600: 7; Ecoli rRNA inh RFP: 2.3

How did CCn1c(Cn2nnc(-c3ccccc3)n2)nnc1SCC(=O)Nc1ccc(C(C)=O)cc1 do in these assays?
HNF4A DNA FP: -2.6; E coli growth: 0.7; Ecoli rRNA inh: -4; Vif A3G: 25%; MLL AF4-AF9 inh: -12; FGF22 binding: inactive; ALR inh: -31; Ecoli rRNA inh OD600: -6; Ecoli rRNA inh RFP: 2.1

What do the screens show for `CCOC(=O)N1CCN(C(=O)CSc2nnc(CNC(=O)c3ccccc3F)o2)CC1`?
HNF4A DNA FP: -1.6; E coli growth: 0.74; Vif A3G: inconclusive; ALR inh: -4

How did CCCCNC(=O)/C(=C\c1ccc([N+](=O)[O-])o1)NC(=O)c1ccccc1 do in these assays?
HNF4A DNA FP: 6.8; E coli growth: 0.68; Ecoli rRNA inh: -4; Vif A3G: 9%; MLL AF4-AF9 inh: -1.1; FGF22 binding: inactive; ALR inh: -28; Ecoli rRNA inh OD600: -23; Ecoli rRNA inh RFP: 30

Results for COCCCn1c(SCC(=O)Nc2ccccc2F)nnc1-c1ccoc1C ?
HNF4A DNA FP: 1.4; E coli growth: 0.71; Ecoli rRNA inh: 4; MLL AF4-AF9 inh: 1.0; FGF22 binding: inactive; Ecoli rRNA inh OD600: 12; Ecoli rRNA inh RFP: 0.8

Results for CCOC(=O)Cc1csc(NC(=O)C2CCCCC2C(=O)O)n1 (centres undefined) ?
HNF4A DNA FP: 0.2; E coli growth: 0.66; Vif A3G: -3%; ALR inh: 7

How did Cc1ccc(NC(=O)Nc2ccc3c(c2)CCC3)cc1 do in these assays?
HNF4A DNA FP: -1.6; E coli growth: 0.71; Ecoli rRNA inh: 0; Vif A3G: -4%; MLL AF4-AF9 inh: -0.3; FGF22 binding: inactive; ALR inh: -6; Ecoli rRNA inh OD600: 12; Ecoli rRNA inh RFP: -2.1

Results for CCOc1ccccc1NC(=O)C1=C(C)NC(=O)NC1c1cccs1 (centres undefined) ?
HNF4A DNA FP: 0.0; E coli growth: 0.66; Ecoli rRNA inh: -15; Vif A3G: -4%; MLL AF4-AF9 inh: 1.3; FGF22 binding: inactive; ALR inh: -17; Ecoli rRNA inh OD600: -14; Ecoli rRNA inh RFP: -0.4

How did CC(C)(C)C(=O)N1CCC2CC1c1cc(Cl)ccc12 (centres undefined) do in these assays?
HNF4A DNA FP: 0.0; Ecoli rRNA inh: -33; Vif A3G: 4%; MLL AF4-AF9 inh: -1.0; FGF22 binding: inactive; Ecoli rRNA inh OD600: -52; Ecoli rRNA inh RFP: -14

Screening results from PubChem BioAssay.

Only part of the results is shown; count on the stated rates, not on these rows.
